GALR2 ag = GALR2 receptor agonists, primary screen, cell-based; GALR2-expressing cells, agonist activation read-out; activation, %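 (tested at 5 µM)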; actives 0.48% (n = 140,000); AID 803, 2007;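 active means above mean plus 3 SD of all compounds, about 5% in these data, not always enough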;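 further: 0% = vehicle buffer wells and 100% = reference agonist at full effect; tested in CHO reporter cells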
Target sequence (O43603 whole entry, looked up): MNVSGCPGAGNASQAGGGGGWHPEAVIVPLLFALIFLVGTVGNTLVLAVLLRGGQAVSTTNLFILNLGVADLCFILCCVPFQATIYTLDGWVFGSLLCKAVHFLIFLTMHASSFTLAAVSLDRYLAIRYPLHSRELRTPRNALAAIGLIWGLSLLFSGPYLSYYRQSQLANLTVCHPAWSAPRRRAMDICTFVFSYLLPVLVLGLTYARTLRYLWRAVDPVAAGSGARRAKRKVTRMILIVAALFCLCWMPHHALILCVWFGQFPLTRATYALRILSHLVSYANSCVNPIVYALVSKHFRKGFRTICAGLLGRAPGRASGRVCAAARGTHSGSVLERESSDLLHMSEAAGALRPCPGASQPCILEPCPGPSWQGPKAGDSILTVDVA
RGS16-Gao HTS = modulators of RGS16 binding to Galphao, primary screen, biochemical, human proteins, multiplexed bead flow cytometry | actives 0.38% (n = 220,000) | binding response (% of control), % at 10 µM | AID 1441, 2008 | bead-based flow cytometry RGS16-Galphao binding, fluorescence; actives lie on both sides;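 active means below 25% or above 175%, edge rows of some plates excepted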;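 further: Galphao activated by GDP with aluminum fluoride before binding; 100% = wells without compound and 0% = beads without RGS; some results beyond the cut were filed as inactive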
Target sequence (O15492 whole entry, looked up): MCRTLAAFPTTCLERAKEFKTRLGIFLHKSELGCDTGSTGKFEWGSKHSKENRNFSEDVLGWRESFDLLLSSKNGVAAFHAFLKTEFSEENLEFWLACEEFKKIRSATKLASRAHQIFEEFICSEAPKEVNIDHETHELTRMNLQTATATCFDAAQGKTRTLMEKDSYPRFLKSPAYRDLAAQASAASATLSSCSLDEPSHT
Target sequence (P09471 whole entry, looked up): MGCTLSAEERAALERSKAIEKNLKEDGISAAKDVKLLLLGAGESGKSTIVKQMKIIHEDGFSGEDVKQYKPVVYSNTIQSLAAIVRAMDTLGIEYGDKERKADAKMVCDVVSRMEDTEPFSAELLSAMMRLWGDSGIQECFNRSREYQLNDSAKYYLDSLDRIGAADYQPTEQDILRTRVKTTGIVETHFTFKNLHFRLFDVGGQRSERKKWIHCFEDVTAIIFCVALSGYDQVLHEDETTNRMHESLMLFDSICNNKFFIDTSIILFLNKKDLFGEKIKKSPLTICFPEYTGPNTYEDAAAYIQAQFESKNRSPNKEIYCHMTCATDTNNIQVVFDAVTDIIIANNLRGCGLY
HSV replic up = enhancers of HSV replication in host cells, fold increase, host cell viability; actives 0.005% (n = 220,000); HSV replication augmentation in cells; maximum fold increase;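 active means peak rise of 1.5-fold or more in the series; tested in PC3 cells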;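 further: first round at 10 µM; read as green reporter fluorescence; hits show the peak of a series up to 25 µM; 1 = signal of infected wells without compound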
Insulin prom inh = inhibitors of insulin promoter-driven GFP, primary screen, imaging, TRM-6 cells (human fetal islet line), eGFP reporter, cell count; reporter expression induced with tamoxifen; inhibition, % at 2 µM; actives 0.9% (n = 130,000); AID 1273, 2008;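 active means inhibition above the mean plus 3 SD, with well images judged a real hit on visual review, cut at about 60% in these data, passing the limit was not always enough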
PKD1 inh = inhibitors of human PKD1 kinase, biochemical, fluorescence polarization. PKD1 kinase fluorescence polarization assay. inhibition, %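 (about 10 µM by stock and volumes)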. actives 0.056% (n = 200,000). AID 797, 2007;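 active means inhibition of 50% or more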;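 further: controls were vehicle for no effect and a reference inhibitor for full effect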
Insulin prom inh cell count = also measured in Insulin prom inh; calls as there; normalized cell count, %; measured here: cell count, toxicity; reference of the scale not given here;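 cells exposed to compound for 48 h; stained nuclei by imaging scaled within each plate; lower means fewer cells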
HSV replic up primary fold = recorded beside HSV replic up, whose call it bears; fold increase; compound at 10 µM; measured here: primary screen fold increase 10 uM; tested in PC3 cells;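 GFP signal in the first replicate; 1 = infected wells without compound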
* marks the source's active call; other numbers are inactive results; i = inactive; nt = no result given.

Start of the data: the first two entries, ahead of the listing:
mol	GALR2 ag	RGS16-Gao HTS	HSV replic up	HSV replic up primary fold	Insulin prom inh	Insulin prom inh cell count	PKD1 inh
O=C(NCCN1CCN(c2ccccc2F)CC1)C1CC(=O)N(C2CCCC2)C1 (centres undefined)	-0.9	100.2	i	1.05	-9.4	92.3	2.7
CC1(c2ccccc2)CC(C)(C)N(C(=O)C2CCCO2)c2ccccc21 (centres undefined)	-1.5	100.5	i	1.03	-13.3	122.3	-6.8

The list itself, repeating the preview:
mol	GALR2 ag	RGS16-Gao HTS	HSV replic up	HSV replic up primary fold	Insulin prom inh	Insulin prom inh cell count	PKD1 inh
O=C(NCCN1CCN(c2ccccc2F)CC1)C1CC(=O)N(C2CCCC2)C1 (centres undefined)	-0.9	100.2	i	1.05	-9.4	92.3	2.7
CC1(c2ccccc2)CC(C)(C)N(C(=O)C2CCCO2)c2ccccc21 (centres undefined)	-1.5	100.5	i	1.03	-13.3	122.3	-6.8
O=c1[nH]c2ccccc2c(O)c1-[n+]1ccccc1	nt	87.9	i	0.91	nt	nt	nt
CCC(C)(C)n1nnnc1C(c1ccc(OC)c(OC)c1)N1CCN(c2ccccc2)CC1 (centres undefined)	-2.8	107.2	i	0.94	-50.0	141.2	-10.7
COCCN(Cc1cc2ccc(C)c(C)c2nc1Cl)C(=O)N1CCOCC1	nt	105.4	i	0.95	-26.1	162.5	-1.0
COc1ccc(C2=[N+]([O-])C(C)(C)N(O)C2(C)C)cc1	-1.6	104.9	i	1	nt	nt	5.2
CC(=O)NC1=C(N(C)C2CCS(=O)(=O)C2)C(=O)c2ccccc2C1=O (centres undefined)	35.5*	108.4	i	0.78	-3.1	90.6	1.2
COCCCNS(=O)(=O)c1ccc(S(=O)(=O)N2CCCC2)cc1	-0.8	97.1	i	1.06	33.3	87.6	0.7
O=C(NCCCCc1ccccc1)C1CC(c2ccc(C(F)(F)F)cc2)=NO1 (centres undefined)	nt	104.5	i	0.81	nt	nt	nt
O=C(CO)N/N=C/c1cccc(Cl)c1Cl	-0.7	104.0	i	0.85	40.0	129.3	2.1
C/C(CC(=O)Nc1ccc(Cl)c(Cl)c1)=N\NC(=O)C(=O)N1CCCCC1	nt	108.9	i	1.02	nt	nt	-5.0
O=C(Nc1nc(-c2ccccn2)cs1)c1ccco1	nt	90.8	i	1.1	nt	nt	3.0
CC(=O)c1cccc(NC(=O)C2CCN(S(=O)(=O)c3ccc(F)cc3)CC2)c1	-1.3	99.8	i	0.78	-9.4	128.8	-2.0
C/C(N)=C(/C#N)C(=O)COC(=O)CCCNC(=O)c1ccc(Cl)cc1	nt	101.1	i	1	-42.9	121.3	2.2
CCC1(c2cccc(Cl)c2)NC(=O)N(Cc2cc(C(=O)OC)c(C)o2)C1=O (centres undefined)	-0.3	100.9	i	0.93	50.0	93.9	-9.3
CCC(Sc1nc(C)cc(=O)[nH]1)C(=O)Nc1nnc(C)s1 (centres undefined)	-1.7	101.5	i	0.93	-60.0	125.9	5.6
COc1cc2[nH]c3c(=O)n(CCN(C(C)C)C(C)C)cnc3c2cc1OC	-1.6	97.6	i	0.95	13.8	56.5	-4.7
COc1cc(C(=O)NC(=S)N(C)Cc2ccccc2)cc(OC)c1OC	nt	99.8	i	0.98	-5.3	73.4	-3.4
O=C(NCc1ccc2c(c1)OCO2)c1ccncc1	-1.3	113.2	i	1.01	15.8	78.3	-10.3
Oc1ccc(CNc2ccccc2F)c2cccnc12	-0.2	87.9	i	0.93	nt	nt	-6.5
O=C(c1ccco1)N1CCN(CCCCOc2ccc(F)cc2)CC1	-0.9	106.2	i	1.04	-14.3	122.3	-8.1
Cc1ccc(C)c(C(=O)OCC(=O)Nc2ccc(N3CCOCC3)cc2)c1	nt	97.9	i	0.99	nt	nt	-6.0
O=C(Nc1ccc(N2CCCCC2)cc1)c1ccc(F)cc1	-0.2	97.9	i	0.95	14.7	104.4	-3.3
O=[N+]([O-])c1cccc(/C([O-])=C(/C(=S)Nc2cccc3ccccc23)[n+]2ccccc2)c1	-1.8	105.5	i	0.82	nt	nt	3.1
Cc1ccc(-c2cc3nn(-c4ccccc4)c(N)c3c(=O)o2)cc1	-1.4	102.1	i	0.93	nt	nt	-5.3
CC(Sc1nc(N2CCOCC2)nc(N2CCOCC2)n1)C(=O)Nc1ccccc1 (centres undefined)	-0.1	75.5	i	1.06	29.0	105.1	3.9
Cc1cccc(N2CCN(C(=S)NCCc3ccccc3)CC2)c1C	-1.7	106.1	i	0.92	17.6	65.2	-1.1
CCOc1ccc(C(=O)NCC(C)C)cc1	-1.9	98.9	i	0.89	-20.0	102.2	-4.5
O=C(CSc1nc2ccccc2s1)Nc1cc(S(=O)(=O)N2CCOCC2)ccc1Cl	-0.9	104.3	i	0.9	-58.7	68.5	6.4
CN(Cc1ccon1)Cc1cn(Cc2ccccc2)nc1-c1ccc2c(c1)OCO2	nt	105.1	i	0.99	nt	nt	-0.6
CCOC(=O)CCSc1nc2c(c(C(F)(F)F)c1C#N)CCC2	-0.4	105.5	i	0.81	25.6	90.6	-5.5
CC1(C)Cc2nc3sc4c(SCC(=O)NCc5ccco5)ncnc4c3cc2CO1	-2.6	101.0	i	0.74	-65.0	92.8	-5.3
CCOC(=O)c1c(C)[nH]c(C(=O)COC(=O)C2(C)CC2(Cl)Cl)c1C (centres undefined)	-1.7	104.8	i	0.88	-75.0	117.1	2.0
Cc1nnc(NC(=O)CSc2n[nH]c(-c3ccccc3)n2)s1	nt	108.1	i	1.01	nt	nt	-2.9
CCCN(C(=O)Cc1nc(N)n[nH]1)C1(C(=O)Nc2c(C)cccc2C)CCCCC1	-0.5	99.6	i	0.93	nt	nt	-6.5
Cc1cccc(OCC(=O)N/N=C2/SCC(=O)N2Cc2ccco2)c1	nt	101.1	i	1	-2.4	185.8	-11.1
N#C/C(=C/c1ccc(C(=O)O)cc1)C(=O)Nc1ccccc1	nt	101.6	i	1.16	-22.2	82.2	-3.6
C=CCN(c1ccc(C(=O)Nc2cc(C)cc(C)c2)cc1)S(C)(=O)=O	-1.4	91.3	i	0.92	-8.1	118.9	-1.9
COc1ccc(NC(=O)C2C3CC/C=C\CCC32)cc1 (centres undefined)	nt	103.9	i	0.91	nt	nt	nt
CCN(CC)C(=O)c1cc([N+](=O)[O-])cc2c1-c1ccc([N+](=O)[O-])cc1C2=C(C#N)C#N	nt	89.0	i	0.8	nt	nt	nt
NC(=O)c1c(N)sc2c1CCCC2	-1.4	99.7	i	1.05	36.8	108.8	-0.1
O=C1C2C3C=CC(CC3)C2C(=O)N1c1ccc2c(c1)OCO2 (centres undefined)	-0.5	101.0	i	0.92	-34.9	100.0	-6.9
CCNC(=S)N1CCN(C(=O)c2ccco2)CC1	-3.5	97.5	i	1.06	nt	nt	7.5
CCc1ccc(NC2Nc3cc(C)nn3S2)cc1 (centres undefined)	-1.1	94.9	i	0.84	-15.4	87.5	-14.1
Cn1cc(/C=N/NC(=O)c2cccc([N+](=O)[O-])c2)c2ccccc21	0.7	110.2	i	0.94	nt	nt	4.8
CSc1ncccc1C(=O)OCC(=O)C(C)(C)C	nt	101.8	i	1	41.7	122.8	4.5
Cc1cc(C)nc(SCC(=O)Nc2ncc(Cc3cccc(Cl)c3Cl)s2)n1	-0.4	102.7	i	1.07	nt	nt	7.6
Cn1ccc(C(=O)OCC(=O)Nc2cccc3ccccc23)n1	nt	103.4	i	0.93	6.7	112.0	2.5
CCOc1cc(/C=C2\SC(=S)N(Nc3ccccc3)C2=O)ccc1O	-2.3	105.2	nt	nt	nt	nt	4.0
O=C(Nc1cccnc1)c1ccc(S(=O)(=O)c2ccccc2)cc1	nt	98.7	i	0.88	nt	nt	-1.8

Random excerpt: 3 entries already listed
mol	GALR2 ag	RGS16-Gao HTS	HSV replic up	HSV replic up primary fold	Insulin prom inh	Insulin prom inh cell count	PKD1 inh
COCCCNS(=O)(=O)c1ccc(S(=O)(=O)N2CCCC2)cc1	-0.8	97.1	i	1.06	33.3	87.6	0.7
CC1(C)Cc2nc3sc4c(SCC(=O)NCc5ccco5)ncnc4c3cc2CO1	-2.6	101.0	i	0.74	-65.0	92.8	-5.3
CC1(c2ccccc2)CC(C)(C)N(C(=O)C2CCCO2)c2ccccc21 (centres undefined)	-1.5	100.5	i	1.03	-13.3	122.3	-6.8

(listing goes on)
mol	GALR2 ag	RGS16-Gao HTS	HSV replic up	HSV replic up primary fold	Insulin prom inh	Insulin prom inh cell count	PKD1 inh
O=C1CCC(=O)N1CN(C(=O)c1ccco1)c1ccc(Cl)c(Cl)c1	-3.3	110.0	i	1.02	nt	nt	1.0
Cc1ccc(C(=O)Nc2sc(C(=O)N(C)C)c(C)c2C#N)cc1	-0.9	102.4	i	1.05	39.3	115.8	-12.2
N#CCCn1ncn(-c2ccccc2)c1=S	-0.7	112.0	i	0.87	-173.3	90.5	-8.7
COc1ccc(-c2cc(C(F)(F)F)nc(SCCC(=O)Nc3cc(C)on3)n2)cc1	3.0	97.6	i	1.03	nt	nt	-4.7
CCCCn1c(SCC(=O)Nc2ccccc2C(F)(F)F)nc2ccsc2c1=O	-0.9	102.5	i	0.97	5.3	110.2	-12.9
COc1ccc2oc(=O)c(-c3csc(Nc4ccc(O)cc4)n3)cc2c1	-0.2	101.5	nt	nt	38.5	85.5	-12.1
Cc1ccc(S(=O)(=O)N2CCC(=O)N(C(COCc3ccccc3)Cc3ccccc3)CC2)cc1 (centres undefined)	-0.1	42.9	i	0.9	-35.0	109.1	-3.2
COC(=O)c1sc(NC(=O)c2cc3c(s2)CCCC3)nc1C	-1.8	102.4	i	0.79	-5.6	116.1	-5.8
Cc1cc(C(=O)NN=C2CCCCC2)c2ccccc2n1	-0.9	101.8	i	0.71	nt	nt	-7.2
CC(C)Oc1ccc(Cn2c(=O)sc3ccccc32)cc1	-4.1	113.3	i	0.85	-100.0	148.4	0.5
COc1ccc(C2NC(=O)c3ccccc3O2)cc1OC (centres undefined)	-1.5	99.6	i	0.87	23.8	106.0	-6.0
COc1cc(/C=C(/C#N)C(=O)NCCc2c[nH]c3ccccc23)ccc1OCc1ccccc1F	-1.1	97.1	i	0.74	nt	nt	10.7
CCCCC(=O)Nc1cc(N(C)C)nc2ccccc12	-1.5	98.2	i	0.91	-50.0	72.1	2.2
O=C(CSc1ccc(-c2ccccn2)nn1)c1ccc(F)cc1	nt	106.3	i	0.92	-16.7	136.9	-0.6
CCOC(=O)CN1CC23C=CC(O2)C(C(=O)NCc2ccc(F)cc2)C3C1=O (centres undefined)	-1.7	98.6	i	0.86	20.0	102.2	-13.6
CCOc1cc2[nH]c(=O)n(CCCCC(=O)N3CCCCCC3)c(=O)c2cc1OCC	-2.4	114.8	i	0.87	32.3	116.8	-5.8
O=C(CNC1=NCCC1)c1ccc(Cl)cc1	-1.3	154.0	i	1.07	-18.8	92.6	9.9
Cc1cccc(OCc2nnc(SCC(=O)Nc3cccc(C(=O)N4CCOCC4)c3)o2)c1C	-0.9	109.6	i	0.96	0.0	134.3	-6.2
COc1ccc(CCn2c(C3CCCCC3)nc3c(c(=O)c4ccccc4n3C)c2=O)cc1OC	nt	97.0	i	0.93	nt	nt	nt
O=C(CSc1ccsc1[N+](=O)[O-])N1CCN(c2ccc(Cl)cc2)CC1	-0.9	106.2	i	0.94	nt	nt	-7.4
COc1ccccc1OCC(O)Cn1nc(C)cc1C (centres undefined)	-0.6	108.8	i	0.94	nt	nt	1.6
O=C(NNC(=O)C1CC1c1ccccc1)c1cccc([N+](=O)[O-])c1 (centres undefined)	0.2	102.7	i	0.93	0.0	120.1	-5.7
O=C(NCc1ccc(F)cc1)C1CC(=O)N(CCc2ccccc2)C1 (centres undefined)	1.7	90.9	i	1.07	-46.7	109.5	-21.1
CCOC(=O)NC(Nc1sc2c(c1C(N)=O)CCCC2)(C(=O)OCC)C(F)(F)F (centres undefined)	-0.7	98.9	i	0.97	-55.6	68.1	-5.8
O=C(/C=C\c1ccc2c(c1)OCO2)CC1(O)C(=O)Nc2ccccc21 (centres undefined)	nt	108.4	i	0.85	nt	nt	nt
Cc1cc(-c2n[nH]c(=S)n2Cc2ccccc2)cs1	-0.7	32.1	i	0.92	-3.1	65.3	-7.1
